Screens (PubChem BioAssay)
D2 ag: activates the human D2 dopamine receptor; P14416; DiscoveRx PathHunter D2 beta-arrestin, luminescence, 90 min; 100% = 57 uM dopamine signal; activation, % (concentration not given with the values); 360,000 tested, 0.084% active; AID 624465; in the data active = activation above about 40%; inconclusive = about 15% to 40%; inactive = below about 15%; further: compound concentration not given in the record; the text of the record calls up to 30% inactive
Target sequence (P14416 whole entry, looked up): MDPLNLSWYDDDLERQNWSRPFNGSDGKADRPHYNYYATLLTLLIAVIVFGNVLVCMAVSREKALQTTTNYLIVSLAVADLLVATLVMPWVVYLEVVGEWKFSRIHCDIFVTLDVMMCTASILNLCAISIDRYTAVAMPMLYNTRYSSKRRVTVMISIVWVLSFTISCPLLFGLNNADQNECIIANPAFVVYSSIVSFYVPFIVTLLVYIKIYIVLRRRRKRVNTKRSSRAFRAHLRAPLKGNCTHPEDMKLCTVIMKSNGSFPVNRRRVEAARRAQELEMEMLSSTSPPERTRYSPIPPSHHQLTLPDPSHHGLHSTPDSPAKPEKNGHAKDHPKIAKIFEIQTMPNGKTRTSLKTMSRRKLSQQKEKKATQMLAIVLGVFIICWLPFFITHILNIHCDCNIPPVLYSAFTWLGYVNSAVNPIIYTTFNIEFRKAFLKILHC
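Agonist mode: compounds alone added to overnight-plated D2 PathHunter cells for 90 min at 37 C, with 57 uM final dopamine (EC100) defining full response. Beta-arrestin recruitment detected by chemiluminescent reagent, read after 1 h at ambient temperature.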
D2 PAM: potentiates the human D2 dopamine receptor allosterically; P14416; DiscoveRx D2 beta-arrestin cells, luminescence, 90 min; 100% = 57 uM dopamine signal; potentiation, % (test concentration not listed); 360,000 tested, 0.23% active; active = potentiation of 50% or more; inconclusive = 30% to 50%; inactive = 30% or less;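 further: compound concentration not given in the record; tested on top of an EC20 dose of dopamine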
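PathHunter D2 cells, attached overnight at 37 deg C, received compound in DMSO plus dopamine at EC20 (50 nM final) for 90 min at 37 deg C. Beta-arrestin recruitment was read as luminescence after 1 h with detection reagent at ambient temperature.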
Six1-Eya2 blk: blocks human Six1 binding to Eya2; AlphaScreen GST-Six1/His-Eya2 binding, biochemical; active compounds read low; control for the full effect not named in the record; activity change, % (concentration not given with the values); 360,000 tested, 0.56% active; AID 651725; in the data active = activity change below about -65%; inconclusive = about -30% to -65%; inactive = above about -30%; further: on the % scale 0 is the no-effect control and ±100 the full control effect
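Compounds are tested against tagged Six1 and Eya2 proteins bridged by glutathione donor and nickel acceptor beads; after a one-hour incubation at 37 °C without light, AlphaScreen emission is recorded.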
TRPML1 ag: agonists of human TRPML1 channel. Q9GZU1. TRPML1-expressing cells, Ca2+ dye fluorescence, FDSS; host cell line not named in the record; reference of the full effect not given here. activation, % (no concentration beside the values). 410,000 tested, 0.12% active; in the data active = activation above about 50%; inconclusive = about 30% to 50%; inactive = below about 30%; further: 0% is about no effect; the text of the record puts the active cut at 80%
Target sequence (Q9GZU1 whole entry, looked up): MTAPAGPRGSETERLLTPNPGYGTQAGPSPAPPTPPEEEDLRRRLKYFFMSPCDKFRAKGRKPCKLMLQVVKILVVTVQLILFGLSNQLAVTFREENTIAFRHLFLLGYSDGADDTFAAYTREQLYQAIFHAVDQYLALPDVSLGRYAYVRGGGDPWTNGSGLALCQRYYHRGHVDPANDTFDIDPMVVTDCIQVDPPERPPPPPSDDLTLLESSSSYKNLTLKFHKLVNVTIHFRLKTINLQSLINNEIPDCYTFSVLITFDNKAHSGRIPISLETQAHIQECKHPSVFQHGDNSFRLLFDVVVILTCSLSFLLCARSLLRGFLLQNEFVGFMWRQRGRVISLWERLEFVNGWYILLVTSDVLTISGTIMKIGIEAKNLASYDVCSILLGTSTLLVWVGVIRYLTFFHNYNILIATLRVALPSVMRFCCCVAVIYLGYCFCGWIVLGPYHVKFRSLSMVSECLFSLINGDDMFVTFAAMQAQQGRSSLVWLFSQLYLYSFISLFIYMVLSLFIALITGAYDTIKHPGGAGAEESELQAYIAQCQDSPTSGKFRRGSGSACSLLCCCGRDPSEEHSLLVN
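Kinetic FDSS Ca2+ read in Tet-induced TRPML1-DL cells (ABD Ca8 dye plus quencher, 45-90 min RT loading): baseline, then compound, then 110 s agonist window; EC80 agonist 54-4 at 4uM final added afterwards for a 110 s antagonist window.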
TRPML1 inh: human mucolipin-1 channel inhibition. Q9GZU1. TRPML1-inducible cells, Ca2+ dye fluorescence, FDSS; active compounds read low; inhibition of EC80 agonist-evoked calcium signal. activity change, negative = inhibition, % (concentration not given with the values). 390,000 tested, 0.02% active. AID 624415; in the data active means activity change below about -50%; inconclusive means about -30% to -50%; inactive means above about -30%;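 further: stimulus is agonist 54-4 at its EC80 concentration; on the % scale 0 is the no-effect control and ±100 the full control effect; the text of the record puts the active cut at -80%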
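TRPML1-DL cells, Tet-induced overnight (~16 h, 37 °C) at 1,500 cells/well, were loaded with Ca8 no-wash dye plus quencher for 45-90 min at room temperature. Compounds were pinned during FDSS kinetic reading; agonist 54-4 at EC80 (4 uM final) then added.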
PINK1 expr mod: PINK1 expression modulation. Potency, µM (top dose mostly 76.6 µM), without a hit: top-dose activation (PINK1 increase), hits mostly activators. AID 624263. PINK1 immunofluorescence, high-content cytometry, 24 h. 410,000 tested, 0.2% active; active = well fitted activation curve with a large enough effect; inconclusive = small, poorly fitted or top-dose-only effect; inactive = flat fitted curve, though single readings scatter; cell line not stated here;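 further: potency means the concentration at half of the fitted maximal effect; % of control where 0% means no effect; nearly all actives have a fitted effect of over 65% in size; a mitochondrial uncoupler was the plate control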
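Compound titrations (5 concentrations, 24 h) on a stable cell line; DMSO and CCCP controls. Endpoint: fixed-cell PINK1 immunofluorescence with mitochondrial, cell and nuclear markers, scanned by microplate cytometer.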
* = called active by the depositor; ? = inconclusive; . = no result given; [ ] = another dose, or the depositor's remark.

SMILES	D2 ag	D2 PAM	Six1-Eya2 blk	TRPML1 ag	TRPML1 inh	PINK1 expr mod
COc1ccc(NC(=O)C2=C(C)Nc3c(C(=O)Nc4ccc(C)cc4)cnn3C2c2cc(OC)ccc2OC)cc1 (stereo unspecified)	.	.	.	1.9	2	4.1%
Cc1ccc(CNc2oc(-c3ccc(COc4ccc(C)cc4)o3)nc2C#N)cc1	.	.	.	0.5	-20	0.3%
Nc1c(S(=O)(=O)c2ccccc2)csc1C(=O)O	-1.4	-2	16	-0.7	-3	0.9%
O=C(CC1SC(N2CCCC2)=NC1=O)Nc1ccc(C(=O)NCc2ccccc2F)cc1 (stereo unspecified)	1.8	-1	-2	0.3	-15	1.8%
CCCc1n[nH]c2c1/C(=N\O)CCC2	-2.6	-27	3	0.2	-17	0.6%
O=C(CSC1=NS(=O)(=O)c2ccccc21)Nc1ccccc1	-4.2	-9	1	0.6	7	4.6%
CCOC(=O)N1CCN(C(=O)c2ccc3c(=O)n(CCc4ccccc4)c(=O)[nH]c3c2)CC1	1.2	-4	-3	0.9	16	0.1%
CCOC(=O)c1c(C)oc2ncnc(N3CCN(c4ccc(C)cc4C)CC3)c12	.	.	.	-0.9	11	1.3%
COc1ccc(N(C(=O)c2ccccc2F)S(=O)(=O)c2ccc3c(c2)n(C)c(=O)n3C)cc1	.	.	.	1.9	-8	0.7%
CC(=O)c1ccc(NC(=O)CCCCCn2nnc3ccccc3c2=O)cc1	2.6	0	-3	-0.6	34	0.3%
O=C(COC(=O)/C=C/c1ccc(C(F)(F)F)cc1)NC(=O)NCc1ccco1	-2.8	-7	-7	2.1	-11	6.4%
COc1cc(C(=O)NN(CCC#N)C2=NS(=O)(=O)c3ccccc32)cc(OC)c1OC	3.0	-3	2	0.2	-8	0.9%
CC(=O)N/C(=C\c1ccccc1)C(=O)NCC(=O)O	-0.3	-4	-15	0.6	0	-0.3%
COP(C)(=O)c1c(C)nn(-c2ccccc2)c1C (stereo unspecified)	-0.3	-12	0	-0.2	10	1.9%
COc1cc(/C=C(/C#N)c2nc(-c3cc4ccccc4oc3=O)cs2)ccc1O	.	.	.	1.0	-1	30%
COc1ccc(-n2nnnc2SCC(=O)Nc2cc(OC)c([N+](=O)[O-])cc2C)cc1	-3.8	-4	1	-0.2	-12	3.1%
CC1C2(C)OC(=N)C(C#N)(C(C)O2)C1(C#N)C#N (stereo unspecified)	-2.4	3	4	0.9	0	0.2%
O=C(COC(=O)c1cc(S(=O)(=O)N2CCOCC2)ccc1F)c1ccc[nH]1	-2.1	1	4	-0.4	-6	5.3%
CCOC(=O)Nc1oc2ccccc2c(=O)c1CN1CCOCC1	-1.2	-3	1	0.2	19	3.1%
CC1(C)C(C=C(Cl)Cl)C1C(=O)N(Cc1ccccc1Cl)C1CCS(=O)(=O)C1 (stereo unspecified)	-0.7	-7	-7	11	5	-2.4%
CCCCSc1nc(C)cc(SCC(=O)N/N=C/c2ccccc2)n1	7.8	-6	2	1.8	1	3.7%
COc1ccc(CCn2c(-c3ccc(OC)cc3)nc3c(c(=O)c4ccccc4n3C)c2=O)cc1	-3.8	-6	5	-0.2	18	2.0%
CCOc1cc(C(=S)N2CCCC2)ccc1O	2.0	2	-3	0.3	12	-1.1%
CCN(CC)CCCNC(=O)/C=C/C(=O)O	-3.5	0	-7	0.3	12	0.2%
CCN1CCN(CCC(=O)Nc2ccc(C)cc2)CC1	-6.6	-5	7	0.2	-1	0.8%
CCCOc1ccc(Cl)cc1CNc1ccccc1	-4.3	-2	13	2.9	7	?
Cc1ccc(C(C)NC(=O)C23CC4CC(CC(C4)C2)C3)cc1 (stereo unspecified)	-1.9	-14	-8	-0.1	11	3.4%
Cc1ccc2c(C)c(C(=O)NCCN3CCOC3=O)oc2c1C	0.5	-13	3	0.9	35	-0.5%
CCOc1ccccc1NC(=O)Cn1c(=O)n(-c2ccc(OC)cc2OC)c(=O)c2c(C)c(C(=O)N(CC)CC)sc21	-4.4	0	-3	-0.3	2	3.1%
Cc1ccc(C(=O)c2coc3ccc(OCC(=O)O)cc23)cc1	-2.9	-1	-4	-0.5	17	0.4%

15 structures from above, arranged by length of the SMILES, low to high.
SMILES	D2 ag	D2 PAM	Six1-Eya2 blk	TRPML1 ag	TRPML1 inh	PINK1 expr mod
CCCc1n[nH]c2c1/C(=N\O)CCC2	-2.6	-27	3	0.2	-17	0.6%
CCN(CC)CCCNC(=O)/C=C/C(=O)O	-3.5	0	-7	0.3	12	0.2%
CCN1CCN(CCC(=O)Nc2ccc(C)cc2)CC1	-6.6	-5	7	0.2	-1	0.8%
CC1C2(C)OC(=N)C(C#N)(C(C)O2)C1(C#N)C#N (stereo unspecified)	-2.4	3	4	0.9	0	0.2%
Cc1ccc(C(=O)c2coc3ccc(OCC(=O)O)cc23)cc1	-2.9	-1	-4	-0.5	17	0.4%
Cc1ccc(CNc2oc(-c3ccc(COc4ccc(C)cc4)o3)nc2C#N)cc1	.	.	.	0.5	-20	0.3%
COc1cc(/C=C(/C#N)c2nc(-c3cc4ccccc4oc3=O)cs2)ccc1O	.	.	.	1.0	-1	30%
O=C(COC(=O)/C=C/c1ccc(C(F)(F)F)cc1)NC(=O)NCc1ccco1	-2.8	-7	-7	2.1	-11	6.4%
O=C(CC1SC(N2CCCC2)=NC1=O)Nc1ccc(C(=O)NCc2ccccc2F)cc1 (stereo unspecified)	1.8	-1	-2	0.3	-15	1.8%
COc1cc(C(=O)NN(CCC#N)C2=NS(=O)(=O)c3ccccc32)cc(OC)c1OC	3.0	-3	2	0.2	-8	0.9%
COc1ccc(-n2nnnc2SCC(=O)Nc2cc(OC)c([N+](=O)[O-])cc2C)cc1	-3.8	-4	1	-0.2	-12	3.1%
COc1ccc(CCn2c(-c3ccc(OC)cc3)nc3c(c(=O)c4ccccc4n3C)c2=O)cc1	-3.8	-6	5	-0.2	18	2.0%
CCOC(=O)N1CCN(C(=O)c2ccc3c(=O)n(CCc4ccccc4)c(=O)[nH]c3c2)CC1	1.2	-4	-3	0.9	16	0.1%
COc1ccc(N(C(=O)c2ccccc2F)S(=O)(=O)c2ccc3c(c2)n(C)c(=O)n3C)cc1	.	.	.	1.9	-8	0.7%
COc1ccc(NC(=O)C2=C(C)Nc3c(C(=O)Nc4ccc(C)cc4)cnn3C2c2cc(OC)ccc2OC)cc1 (stereo unspecified)	.	.	.	1.9	2	4.1%

(continued)
SMILES	D2 ag	D2 PAM	Six1-Eya2 blk	TRPML1 ag	TRPML1 inh	PINK1 expr mod
COc1ccc(NC(=O)C(C)n2c(C)c3cnn(-c4ccccc4)c(=O)c3c2C)cc1Cl (stereo unspecified)	.	.	.	1.3	4	18%
Cn1c(SCC(=O)N2CCCc3ccccc32)nc2ccccc2c1=O	1.6	-7	-10	-0.9	-12	-1.7%
C#CC(CC)(CC)NC(=O)c1ccc(Br)s1	-3.0	-4	6	-0.4	20	4.8%
Cc1cccc(CNC(=O)c2ccc(N3Cc4ccccc4Oc4ncccc43)s2)c1	.	.	.	0.3	10	-1.2%
Cc1cccnc1NC(=O)CSc1ncnc2sc(C)c(C)c12	-1.5	-8	-10	0.2	27	-2.4%
CC(C)C1N=C2c3ccccc3N=C(SCC(=O)c3ccc(O)c(O)c3)N2C1=O (stereo unspecified)	1.4	-1	-11	0.7	-11	-0.3%
O=C(Cc1ccccc1)NNC(=O)c1ccc(Br)o1	4.3	-8	13	-0.1	-12	-0.5%
CC(C)c1ccc(NC(=O)CCS(=O)(=O)c2ccc(Br)s2)cc1	.	.	.	3.2	-3	-1.1%
CCCn1c(N)c(N(CCOC)C(=O)c2ccc(F)cc2)c(=O)[nH]c1=O	-0.4	1	0	-0.1	-6	1.6%
O=C(O)c1ccccc1NC(=O)N1CCOCC1	-4.9	-3	-16	-0.7	-8	2.0%
COc1ccc(/C=C2/SC(=O)N(CC(=O)NCCC(C)C)C2=O)cc1OC	-4.4	0	4	0.0	-5	-1.7%
CCOC(=O)CNC(=O)CSc1nnc(-c2cccc(C)c2)n1-c1ccc(OC)cc1	-6.2	-14	-5	0.8	13	-0.6%
CC(C)(C)N1CC(C(=O)Nc2ccc(S(N)(=O)=O)cc2)CC1=O (stereo unspecified)	1.6	2	-1	-0.3	2	-0.9%
CCOC(=O)c1[nH]c2ccc(Br)cc2c1NC(=O)CNC	-4.3	-9	-1	-0.8	4	-0.1%
Cc1ccc(C)c(N2CCN(C(=O)C3CCCN(c4ncnc5c4nc4n5CCCCC4)C3)CC2)c1 (stereo unspecified)	3.4	6	-1	-0.3	-1	13%
Cc1cc(C(=O)N/N=C/c2ccccn2)c2ccccc2n1	-2.6	3	-15	-0.2	22	0.2%
C=CC(=O)N1C/C(=C/c2ccccc2)C(=O)/C(=C\c2ccccc2)C1	-6.8	-15	-7	0.5	45	-6.5%
S=c1[nH]nc(CN2CCCCC2)n1Cc1ccccc1	-18	-8	1	0.3	-14	2.9%
CN(Cc1cnn(-c2ccccc2)c1)C(=O)c1cccc(S(=O)(=O)N(C)c2ccccc2)c1	-0.1	-9	3	-1.3	-3	0.7%
O=C(OCC(=O)c1ccc[nH]1)c1ccc(S(=O)(=O)N2CCCCCC2)cc1	-1.5	-10	4	1.1	8	0.4%
O=C(Cc1cccc2ccccc12)N1CCN(c2ncccn2)CC1	-2.3	-4	3	-0.4	8	0.4%
COC(=O)c1ccc(OCC(=O)Nc2nn(-c3ccccc3)nc2C(N)=O)cc1	-1.4	28	-3	-0.4	3	-13%[38.3 µM]
CC1(C)CC(=O)c2cc(OCC(=O)NCc3cccnc3)ccc2O1	0.7	-4	4	-0.6	8	0.9%[38.3 µM]
CC(C)(C)c1ccc(/C=N/NC(=O)C2CCCC2)cc1	-1.4	-11	0	0.4	-2	30%
CC(=O)N1CCc2cc(S(=O)(=O)C(C)CC(=O)Nc3ccc(Br)c(C)c3)ccc21 (stereo unspecified)	.	.	.	0.2	-5	0.0%
CN1CCN(C(=O)/C=C\c2ccc(Cl)cc2)CC1	-1.9	-26	0	0.0	30	-2.3%
COc1ccc(CCNc2oc(/C=C/c3ccc(OC)c(OC)c3)nc2C#N)cc1	.	.	.	2.4	-4	2.2%
COc1ccc(NC(=O)CC2C(=O)OCC3CCCCN32)cc1Cl (stereo unspecified)	-3.1	-6	-6	-0.1	-3	0.1%
N/C(=N\OC(=O)C1CCCCC1)c1ccc(Br)cc1	-0.5	0	7	1.1	-1	3.7%
